From PubChem BioAssay
PrP UTR inh – inhibition of PrP 5' UTR reporter expression; cell-based PrP 5' UTR mRNA reporter, plate reader; inhibition, % (concentration not given with the values); 0.35% of 340,000 active;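 active = every replicate at 50% or more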;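 note: 0 = median of the neutral control wells; tested in H4 reporter cells; numbers are from one replicate; inactives centre near -14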
Sa RN4220 lethal – kills Staphylococcus aureus RN4220. S. aureus RN4220 growth, OD600, 16 h. 0.33% of 330,000 active. AID 1259311. inhibition, % (concentration not given with the values);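 active = z-score of -3 or lower and OD600 up to 0.18 on both plates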;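 note: plate controls were untreated cells for no effect and reference antibiotic for full effect; stock transfer was 100 nL into about 80 µL; one replicate is shown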
Mtb hypoxia inh – Mtb hypoxia fluorescent reporter inhibition. M. tuberculosis hypoxia-regulated fluorescent reporter, fluorescence. fluorescence inhibition, % (no concentration beside the values). 0.1% of 300,000 active. AID 1159583;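 active = 35 to 45% if threefold the growth effect, above 45% if 1.5-fold the growth effect; inactive = the rest, general growth blockers included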;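 note: wells of about 50 µL received 100 nL stock; 0% = vehicle wells and 100% = reference inhibitor wells; whole bacteria with a GFP reporter of the hypoxia response; strong numbers were not always called active; many hits fall short of the cut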
Autofluor counter – counter-screen for toxin protease inhibitors: compound fluorescence | fluorescence intensity (test concentration not listed) | compound autofluorescence counterscreen, microsphere flow cytometry; hits give high values | 3.1% of 360,000 active | AID 624483;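 active = at least 3 SD above the mean of all compounds, about 16000 in these data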;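 note: 100 nL of 1 mM stock went into each well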
ugtP null kill – kills S. aureus RN4220 lacking UgtP; S. aureus RN4220 ugtP deletion, OD600 growth, 16 h; some inactives read as strong as hits; growth inhibition, % (concentration not given with the values); 0.54% of 330,000 active; AID 1259309;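 active = z-score under -3 and OD600 up to 0.15 on both plates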;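 note: plate controls were untreated wells for no effect and antibiotic for full effect; wells of about 80 µL received 100 nL stock; the first replicate is given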
BJeLR lethal – kills HRASV12-expressing BJeLR cells; BJeLR (HRASV12) viability, CellTiter-Glo ATP luminescence, 48 h; reference of the scale not given here; inhibition, % (no concentration beside the values); 0.17% of 300,000 active; AID 1554;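 active = replicate mean above 50%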;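 note: 50 nL library stock added to about 25 µL; numbers are from one replicate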
Mtb hypoxia inh growth – recorded beside Mtb hypoxia inh, whose call it bears; growth inhibition, %; measured here: M. tuberculosis growth (absorbance);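 0% = vehicle and 100% = reference antibiotic; read after six days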
* hit, by the source's call; · = not tested or not shown.

SMILES | PrP UTR inh | Sa RN4220 lethal | Mtb hypoxia inh | Mtb hypoxia inh growth | Autofluor counter | ugtP null kill | BJeLR lethal
CCOC(=O)C1CCCN(C(=O)c2sc3nc(-c4ccc(OC)cc4)cn3c2C)C1 (stereo unspecified) | -16 | 4.6 | 5 | 15 | 9771 | -6 | 5
Cc1ccccc1CC(=O)N1CCN(S(=O)(=O)c2cccs2)CC1 | -7 | 2.7 | 9 | 10 | 4639 | 5 | -3
Nc1ccc(Oc2ncccn2)c(Cl)c1 | -7 | 3.0 | -3 | -7 | 2935 | 12 | 9
CCC(Cc1ccccc1)=NNC(=O)CNC(=O)c1ccc(Cl)cc1Cl | · | 0.9 | 5 | 1 | · | 2 | ·
CCCNC(=O)c1ccccc1NS(=O)(=O)c1ccc(OC)c(OC)c1 | 6 | 5.3 | -3 | -6 | 3254 | 8 | 3
COc1ccc(OC)c(CNc2ncc(-c3ccc(F)cc3)n2C)c1 | -6 | 1.9 | -15 | 6 | 4216 | 10 | -3
Cc1ccc(S(=O)(=O)N2CCOCC2)cc1C(=O)NC(C)CCc1ccccc1 (stereo unspecified) | -2 | 6.9 | 7 | 5 | 3818 | 7 | ·
Cc1ccc(-c2nc(SCC(=O)N(C)c3c(N)n(Cc4ccccc4)c(=O)[nH]c3=O)n[nH]2)cc1 | -12 | 5.3 | -2 | 1 | 6036 | 4 | 9
CCC(CC)c1nnc(NC(=O)c2cccc(S(=O)(=O)N3CCOCC3)c2)s1 | -13 | -0.2 | 20 | 9 | 3905 | -2 | ·
CCO[C@@H]1OC(C(N)=O)=C[C@H](C2CC2)[C@H]1CCCO | -16 | · | · | · | 4066 | · | 0
COc1ccccc1N1CCN(C(=O)c2ccc3[nH]c4c(c3c2)CCCC4)CC1 | -5 | -0.7 | 4 | -2 | 2466 | -9 | -6
O=C(Nc1sc(-c2ccccc2)cc1C(=O)O)c1ccccc1 | -1 | 6.3 | -9 | 7 | 4814 | -9 | -4
Cc1nn2cc(-c3ccc(N)cc3)nc2s1 | -80 | 3.9 | 13 | 1 | 9816 | 2 | 5
COC(=O)C(Cc1ccccc1)NC(=O)c1cccc(S(=O)(=O)N(C)C)c1 (stereo unspecified) | -37 | -0.9 | 2 | 1 | 4261 | -1 | 5
CC(C)C(c1nnnn1C1CCCC1)N1CCN(c2ccccc2F)CC1 (stereo unspecified) | -28 | 1.8 | · | · | 5114 | -8 | 2
Cc1nc2cc(C(F)(F)F)ccc2n1CCNc1nc(-c2ccc(F)cc2)cs1 | -31 | -8.4 | 1 | 7 | 4270 | 0 | 2
CCOC(=O)CSc1nnc(-c2ccc([N+](=O)[O-])cc2)o1 | -12 | 1.7 | 14 | 5 | 2447 | -12 | -9
CCC(=O)NC(Nc1cc(C)cc(C)n1)(C(F)(F)F)C(F)(F)F | 4 | 13 | 5 | 4 | 3124 | 8 | 3
Cc1nc(N)sc1C(=O)NN=Cc1ccco1 | · | 3.3 | -3 | -4 | · | 2 | ·
CC(=O)Oc1ccc(-c2ccc(C(=O)Nc3cccc(S(=O)(=O)N4CCOCC4)c3)cc2)cc1 | -18 | -3.3 | 13 | 4 | 3632 | -27 | -3
NC(=O)C1CCN(c2nc(-c3ccc(F)cc3)cs2)CC1 | 3 | 12 | 15 | 5 | 4087 | 6 | ·
Fc1ccccc1C=Nn1cc(-c2ccccc2)[nH]c1=S | · | 6.2 | 0 | 13 | · | 21 | ·
O=C(NC(Cc1ccccc1)C(=O)O)/C(=C/c1ccco1)NC(=O)c1cccc([N+](=O)[O-])c1 (stereo unspecified) | -15 | 2.4 | 12 | 9 | 2827 | 6 | -9
c1ccc(COC2CCCN(Cc3nc(-c4cccs4)no3)C2)nc1 (stereo unspecified) | -14 | 7.1 | -7 | 12 | 2051 | 4 | 2

Record cards (already shown).
Record of `COc1ccccc1N1CCN(C(=O)c2ccc3[nH]c4c(c3c2)CCCC4)CC1` : PrP UTR inh: -5; Sa RN4220 lethal: -0.7; Mtb hypoxia inh: 4; Mtb hypoxia inh growth: -2; Autofluor counter: 2466; ugtP null kill: -9; BJeLR lethal: -6
Record of `CCC(Cc1ccccc1)=NNC(=O)CNC(=O)c1ccc(Cl)cc1Cl` : PrP UTR inh: ·; Sa RN4220 lethal: 0.9; Mtb hypoxia inh: 5; Mtb hypoxia inh growth: 1; Autofluor counter: ·; ugtP null kill: 2; BJeLR lethal: ·
Record of `CCC(=O)NC(Nc1cc(C)cc(C)n1)(C(F)(F)F)C(F)(F)F` : PrP UTR inh: 4; Sa RN4220 lethal: 13; Mtb hypoxia inh: 5; Mtb hypoxia inh growth: 4; Autofluor counter: 3124; ugtP null kill: 8; BJeLR lethal: 3

(continued)
SMILES | PrP UTR inh | Sa RN4220 lethal | Mtb hypoxia inh | Mtb hypoxia inh growth | Autofluor counter | ugtP null kill | BJeLR lethal
O=c1[nH]c(N2CCOCC2)cc2ccccc12 | -21 | -0.5 | -1 | 4 | 3481 | -2 | -2
COc1ccccc1NS(=O)(=O)c1cccc(NC(=O)Nc2cccc(Cl)c2)c1 | -3 | · | · | · | 2487 | · | 13
Cc1ccc(S(=O)(=O)N2CCCCC2)cc1NC(=O)C1CC1 | -14 | 0.9 | -2 | -1 | 5327 | -1 | ·
COC(=O)c1ccc(Oc2nc(Nc3ccc(F)cc3)nc(N3CCCC3)n2)cc1 | 2 | -1.5 | 7 | 5 | 2509 | -18 | 1
Cc1cccc(C(N)=NOC(=O)c2ccco2)c1 | · | 3.6 | 7 | 7 | · | -4 | ·
CC1=[N+](C)c2ccc3ccccc3c2C1(C)C | -19 | -2.0 | 15 | 18 | 1435 | 1 | 0
Cc1onc(-c2ccccc2)c1C(=O)Nc1ccc(S(=O)(=O)NC2=NCCCCC2)cc1 | -29 | 1.0 | 6 | 5 | 8916 | 8 | -1
CCN(CC)CCCNC(=O)c1ccc2c(Cl)c3c(nc2c1)CCCC3 | 2 | -0.2 | 8 | -5 | 1933 | 4 | -8
CCCC(=O)N1c2ccccc2[C@@H](N(C(C)=O)c2ccccc2)C[C@H]1C | -16 | 1.4 | 6 | 11 | 3290 | 2 | -3
O=C1NC2(CCCCC2)N=C1c1ccccc1 | -9 | 2.4 | 1 | -1 | 24870* | 2 | -8
CCCCNC(=S)NNC(=O)c1csc(C)c1 | -13 | 1.4 | 25 | 35 | 22322* | -6 | -9
C#CCOC(=O)CCCNc1ccc([N+](=O)[O-])cc1[N+](=O)[O-] | -1 | 3.0 | 6 | 11 | 9313 | -1 | 2
Cc1ccc(S(=O)(=O)CC(=O)Nc2nnc(C)s2)cc1 | -17 | 8.8 | 3 | -3 | 5746 | -1 | 11
COc1ccc(CN2CC(C(=O)N3CCOCC3)CC2=O)cc1 (stereo unspecified) | -10 | -7.5 | 7 | 6 | 3369 | -6 | 4
COc1ccc(C(CNC(=O)c2c(C)nn(Cc3ccccc3)c2Cl)N2CCOCC2)cc1 (stereo unspecified) | 8 | -0.8 | 3 | 7 | 6314 | -1 | ·
CCOc1ccc(OCC(=O)OCc2csc(CC(=O)Nc3ccccc3C)n2)cc1 | -14 | 4.5 | 6 | 4 | 6650 | 8 | -6
CCCCNS(=O)(=O)c1cccc(S(=O)(=O)N2CCCC2)c1 | -21 | 0.4 | · | · | 5914 | -1 | 0
O=C(NC1CCCCC1)C(c1ccccc1)N(Cc1ccco1)C(=O)Cn1cnc2ccccc21 (stereo unspecified) | -20 | -3.7 | · | · | 4947 | 4 | 5
Cc1c(C)n(C(=O)CN2CCN(c3ccccn3)CC2)c2ccccc12 | 1 | -0.8 | · | · | 4781 | 5 | -7
COc1ccc(CCNC2CCCCCC2)cc1 | -43 | -1.1 | -1 | 10 | 3971 | -3 | 8
COc1ccccc1-c1nnn(C/C(N)=N/O)n1 | -53 | 18 | 5 | 2 | 2443 | 7 | -7
CC(=O)N=c1sc2nc3ccccc3nc2n1N(C(C)=O)C(C)=O | -12 | 2.8 | 13 | -1 | 3239 | 9 | -6
O=C(NN=C1CCN(Cc2ccccc2)CC1)C(O)c1ccccc1 (stereo unspecified) | -31 | -4.7 | -4 | 5 | 2610 | -5 | 21
COc1ccc(S(=O)(=O)N2CCCCC2)cc1NS(=O)(=O)c1ccccc1F | -9 | 11 | 11 | 12 | 3502 | 3 | 1
O=C(COC(=O)c1ccc([N+](=O)[O-])cc1Cl)Nc1cccnc1Cl | 0 | 42 | 9 | 3 | 5373 | 13 | -12
O=C(CCSc1nc2ccccc2o1)Nc1ccccc1 | 1 | 7.1 | 15 | 1 | 2787 | -6 | 1
COc1ccc(NS(=O)(=O)c2cc(NC(=O)c3cc(=O)c4ccccc4o3)ccc2OC)cc1 | -4 | 3.5 | 14 | 6 | 3570 | 6 | -4
CC1=C(C(=O)Nc2ccc(Cl)cc2C(=O)N2CCC(C(N)=O)CC2)SCCO1 | -20 | -2.2 | -4 | -6 | 5459 | -1 | 1
O=C1Nc2ccccc2CCC1Sc1nnc(-c2ccc(Cl)cc2)s1 (stereo unspecified) | -27 | 5.9 | 1 | 13 | 24726* | -10 | 3
COc1ccc(S(=O)(=O)N2CCCC(C(=O)NCc3ccncc3)C2)cc1Cl (stereo unspecified) | -26 | 3.2 | 5 | 5 | 12219 | 0 | 8
COc1ccc(NC(=O)N2CCCC2C(=O)Nc2cccc(C)c2C)cc1 (stereo unspecified) | -33 | 0.5 | 1 | 1 | 5511 | -4 | 5
Cc1[nH]c(C(=O)N/N=C/c2ccc(C(=O)O)cc2)c(C)c1C(=O)N/N=C/c1ccc(C(=O)O)cc1 | -5 | · | · | · | 2058 | · | -5
CCOC(=O)c1c(C)[nH]c(C)c1S(=O)(=O)NC(C)Cc1ccco1 (stereo unspecified) | -14 | 3.0 | -3 | 2 | 5531 | 2 | 12
O=S(=O)(NCc1ccccc1)c1ccc(Cl)cc1 | -21 | 5.5 | 6 | 6 | 3948 | -5 | 3
COc1ccc(NS(=O)(=O)c2c(C)[nH]c(C)c2C(=O)N2CCCCC2)cc1Cl | -4 | -0.8 | 11 | 3 | 5345 | 0 | 7
COc1cccc(C2C(C#N)=C(N)OC3=C2C(=O)CCC3)c1OC(=O)c1ccco1 (stereo unspecified) | -14 | 3.0 | · | · | 2285 | 12 | -4
C=CCOc1cccc(/C=C2\C(=O)N(Cc3ccc(C)cc3)C(C)=C2C(=O)OC)c1 | -3 | · | · | · | 2748 | · | -9
Cc1cc(C(=O)NC2CCCCC2C)c2ccccc2n1 (stereo unspecified) | -14 | -1.4 | 7 | 4 | 5912 | 3 | -2
CN1CCN(Cc2ccccc2C(F)(F)F)CC1 | -23 | 5.1 | 6 | 6 | 4195 | 5 | -7
N#CC1=C(N)Nc2ncnn2C1c1ccc([N+](=O)[O-])cc1 (stereo unspecified) | -15 | 1.7 | -2 | -2 | 4473 | 7 | 5
Cc1ccc(-c2cn(C[C@H]3CC[C@@H]([C@@H]4CC[C@H](Cn5cc(-c6ccc(C)cc6)nn5)O4)O3)nn2)cc1 | -13 | · | · | · | 3569 | · | -9
O=P(OCC1CCCO1)(OCC1CCCO1)OCC1CCCO1 (stereo unspecified) | -7 | 2.2 | 9 | -1 | 2935 | 5 | ·
COc1cc(NC(=O)c2ccc(F)cc2)c(OC)cc1Cl | -14 | -1.5 | 0 | 4 | 3461 | -9 | 1
O=C1NCCCC1C(=O)Nc1ccccc1C(F)(F)F (stereo unspecified) | -21 | 2.6 | 8 | 12 | 6614 | 7 | 15
CCOC(=O)N1CCC(=NNC(=O)COc2cccc(C)c2)CC1 | -19 | 0.9 | 3 | 2 | 2378 | 4 | -2
COc1ccccc1CNc1ncnc2c1cnn2-c1ccccc1 | -32 | -2.5 | 7 | 12 | 5609 | 14 | 3
O=C(NCc1cccnc1)c1ccccc1NS(=O)(=O)c1ccc(Br)cc1 | -2 | 6.0 | 1 | 0 | 3483 | -8 | ·
Cc1cc(C)nc(SCC(=O)c2ccc(O)c(O)c2)n1 | 12 | 7.5 | 9 | -1 | 3603 | 0 | 2
Cc1noc(C)c1COc1ccc(C(=O)N2CCC(C(N)=O)CC2)cc1 | -18 | 5.0 | 4 | 1 | 3488 | 6 | ·
O=C(c1cc2cc(Cl)ccc2[nH]1)N1CCN(c2ccccn2)CC1 | -18 | -2.1 | 8 | 8 | 3591 | 5 | -9
CC(O)C(=O)NCCOCCOCCNC(=O)C(C)O (stereo unspecified) | -19 | 13 | -2 | 8 | · | 4 | 1

A portion taken from the entries so far:
SMILES | PrP UTR inh | Sa RN4220 lethal | Mtb hypoxia inh | Mtb hypoxia inh growth | Autofluor counter | ugtP null kill | BJeLR lethal
O=C(c1cc2cc(Cl)ccc2[nH]1)N1CCN(c2ccccn2)CC1 | -18 | -2.1 | 8 | 8 | 3591 | 5 | -9
CC(O)C(=O)NCCOCCOCCNC(=O)C(C)O (stereo unspecified) | -19 | 13 | -2 | 8 | · | 4 | 1
